Screening results (PubChem BioAssay)
HPGD inh = blocks human HPGD enzyme activity | 150,000 tested, 4.3% active | P15428 | Potency, µM, for inactives: at the highest dose activity change, negative = inhibition, usual class: inhibitors | purified HPGD, NADH fluorescence kinetic, PGE2 substrate | AID 894; active = well fitted inhibition curve with a large enough effect (not every such curve was filed as active); inconclusive = small, poorly fitted or top-dose-only effect, or another doubt; inactive = no such curve, though single readings can be large or run the other way;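 note: top concentration of the series not given in the record; plate controls included wells without enzyme; inactives centre near -10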
Target sequence (P15428 whole entry, looked up): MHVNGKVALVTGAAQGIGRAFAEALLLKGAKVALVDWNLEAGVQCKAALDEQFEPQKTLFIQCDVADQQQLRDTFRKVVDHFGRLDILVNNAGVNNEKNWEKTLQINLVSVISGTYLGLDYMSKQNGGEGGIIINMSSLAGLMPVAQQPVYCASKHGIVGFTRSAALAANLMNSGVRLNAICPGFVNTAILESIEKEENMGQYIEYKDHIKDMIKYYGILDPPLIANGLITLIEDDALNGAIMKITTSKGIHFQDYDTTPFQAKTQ
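20 nM HPGD preincubated 15 min at room temperature with compound in 50 mM Tris-HCl pH 8, 0.01% Tween 20. Started with 1 mM NAD+ and 30 uM prostaglandin E2; NADH fluorescence (360/450 nm) read 5 times over 30-s intervals, last minus first.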
Active calls of the source: *; ? = inconclusive; & = joins results of further samples. % is set by controls: 0 for no effect and ±100 for the full control effect; potency is the fitted concentration of half-maximal effect. Not all compounds are listed (hit frequency here may not be typical).

SMILES | HPGD inh
COc1ccc(C(=O)CN2C(=O)c3ccccc3C2=O)c(OC)c1C | -4.9%
CCSC(=Nc1ccccc1)C1=C(O)COC1=O | -4.6%
COc1ccc(Cl)c(NC(=O)NCCN2CCN(c3ccccc3)CC2)c1 | -7.2%
CCN(CC)c1ncnc2ccc(Br)cc12 | -16.4%
O=C(CN1C(=O)CSC1=O)Nc1ccccc1F | -6.2%
CCOC(=O)N1CCN(S(=O)(=O)c2ccc(C(=O)NNc3nc4c(C)cc(C)cc4s3)cc2)CC1 | -23.5%
CCOC(=O)N1CCN(C(=O)CSCc2ccccc2Cl)CC1 | -0.3%
COc1ccc(NS(=O)(=O)c2cc(NC(=O)c3cnccn3)ccc2N2CCCC2)cc1 | -12.4%
c1ccc(CCSc2nccn2-c2ccccc2)cc1 | -15.2%
S=C(Nc1ccccc1)Nc1nc2ccccc2n1CCOc1ccccc1 | -15.7%
O=C(CCCN1C(=O)c2ccccc2C1=O)Nc1ccc(S(=O)(=O)N2CCCCC2)cc1 | -4.3%
C=C/C1=C/Cc2ccccc2[C@H](C[N+](=O)[O-])C(C(C)=O)(C(=O)OC)C1 (some centres undefined) | -17.1%&0.4%
COc1ccc(NC(=S)NCc2ccc(S(N)(=O)=O)cc2)c(OC)c1 | 14.1µM*
Cc1ccc(N2CCN(CC3CC=CCC3)CC2)cc1 (centres undefined) | -1.6%
Cc1nn(-c2ccccn2)c2nc(-c3cccs3)cc(C(=O)N3CCOCC3)c12 | ?
O=C(Nc1ccccc1-c1ccccc1)c1cc(C(F)(F)F)cc(C(F)(F)F)c1 | -2.9%
CNC(=O)c1ccc(Nc2nnc(C)c3ccccc23)cc1 | -7.2%
Cc1ccccc1C(=O)Nc1ccccn1 | -8.5%
Brc1ccc(-c2csc(N3CCc4ccccc4C3)n2)cc1 | -10.5%
COC(=O)c1ccc(S(=O)(=O)NNC(=O)COc2ccc(C)cc2)cc1 | -5.9%
O=C(COc1ccccc1)N1CCN(C(=O)Cc2ccccc2)CC1 | -7.6%
Cc1nc2ccccc2nc1N1CCCC1 | -7.8%
Cc1nc2ccc(-c3ccccc3)cc2o1 | -18.2%
CCOc1ccccc1N(CC(=O)NC1CCCCC1)C(=O)CCCC(=O)Nc1ccccn1 | -2.9%
COc1ccccc1NC(=O)CN1C(=O)CSC(C)C1=O (centres undefined) | -4.9%
CCOC(=O)c1cnc2ccc(C)cc2c1Nc1ccc(N2CCOCC2)cc1 | -15.8%
CC(=O)c1ccc(OCCN2CCOCC2)cc1 | -8.3%
COc1ccc(-n2c(-c3ccc(F)cc3)cnc2SCC(=O)NCc2ccco2)cc1 | ?
COc1cccc(C2CC(c3cccs3)=NN2C(=O)CSc2nc3c(cnn3-c3ccc(F)cc3)c(=O)[nH]2)c1OC (centres undefined) | ?
COc1ccc(/C=C2\SC(=S)N(CC(=O)Nc3nnc(C)s3)C2=O)cc1 | -19.7%

Shown as a hit in HPGD inh (from the list above):
SMILES | HPGD inh
COc1ccc(NC(=S)NCc2ccc(S(N)(=O)=O)cc2)c(OC)c1 | 14.1µM*

Of the compounds above, these contain a thiophene ring, fused or not:
SMILES | HPGD inh
Cc1nn(-c2ccccn2)c2nc(-c3cccs3)cc(C(=O)N3CCOCC3)c12 | ?
COc1cccc(C2CC(c3cccs3)=NN2C(=O)CSc2nc3c(cnn3-c3ccc(F)cc3)c(=O)[nH]2)c1OC (centres undefined) | ?

Continued:
SMILES | HPGD inh
CCn1c(-c2ccc(C)cc2)nn(CC(=O)NCCc2ccccc2)c1=S | -14.1%
COc1ccccc1N1CCN(C(=O)c2cc(N3C(=O)C4C5CCC(C5)C4C3=O)ccc2Cl)CC1 (centres undefined) | -8.3%
O=C(Nc1ccc(NC(=O)C2CC2)nc1)c1cccnc1 | -15.0%
CC(=O)Nc1ccc(OCC(O)CNC2CCCC2)cc1 (centres undefined) | -9.5%
COc1ccc(-c2nnc(NC(=O)c3ccc(S(=O)(=O)N4CCCc5ccccc54)cc3)o2)cc1 | -9.9%
Cn1c(=O)oc2cc(S(=O)(=O)NCCc3ccccc3)ccc21 | 3.6%
O=C(Nc1cccc(-c2cn3ccccc3n2)c1)c1cnccn1 | -12.7%
Cc1ccc(N(Cc2ccc(C(=O)Nc3ccccc3C(=O)NCc3ccco3)cc2)S(C)(=O)=O)cc1C | ?
COc1cccc(/C=N/NC(=O)CCc2ccccc2)c1 | -13.3%
Cc1ccc(-n2nnnc2SCC(=O)Nc2ccccc2-c2ccccc2)cc1C | -17.0%
CN1C(=O)c2cccc(NCCCN3C(=O)c4ccccc4C3=O)c2C1=O | -10.0%
Cc1cc(C)c(C#N)c(SCSCc2ccccc2)n1 | ?
Oc1ccc(-c2n[nH]c(=S)n2Cc2ccco2)cc1 | -17.7%
Cc1ccc2cc3cc(C(=O)N4CCCCC4C)oc3nc2c1 (centres undefined) | 15.8µM*
Cc1ccccc1Nc1nc(N)nc(COC(=O)c2ccc(S(=O)(=O)N(C)C)cc2)n1 | -8.1%
COC(=O)c1ccc(-n2nnnc2SCc2ccccc2OC)cc1 | -23.5%
O=C(NCCC1=CCCCC1)C1CC(=O)N(C2CCCCC2)C1 (centres undefined) | -3.6%
COC(=O)c1cc2c(s1)CS(=O)C2 (centres undefined) | ?
CCN(CC)C(=O)CSc1nnc(-n2nc(C)cc2C)c2ccccc12 | -14.7%
COc1ccc(CCNC(=O)C2CCCN(C(=O)N(C)C)C2)c(OC)c1 (centres undefined) | -1.1%
CC(=O)NCc1cc(-c2nn(C)c(=O)c3ccccc23)ccc1C | -28.5%
Cc1cc(S(=O)(=O)Nc2nc(CN3CCOCC3)nc3sc4c(c23)CCCC4)ccc1F | -7.9%
COc1ccc(NC(=O)CCS(=O)(=O)c2ccc3c(c2)CCCN3C(C)=O)cc1Cl | -3.3%
Cc1ccc(CN2CC(C(=O)Nc3ccc4c(C)cc(=O)oc4c3)CC2=O)cc1 (centres undefined) | ?
COc1cccc(C(=O)CN2CCN(S(=O)(=O)c3cccc([N+](=O)[O-])c3)CC2)c1 | -10.3%
CCC(CO)NCc1ccc(OCC(=O)Nc2cccc(C(F)(F)F)c2)c(OC)c1 (centres undefined) | 1.5%
Cc1cc2cccc(C)c2nc1SCC(=O)N(C)c1nc(-c2ccccc2)cs1 | -3.3%
COC(=O)C1NN=C(C(=O)c2ccccc2)C1c1ccccc1 (centres undefined) | -11.1%
O=C(CCSc1nccn1Cc1ccccc1)N1CCOCC1 | ?
Cc1ccccc1NC(=O)N(CCc1nc2ccccc2[nH]1)Cc1ccccc1 | -0.9%
CCOC(=O)N1CCN(C(=O)c2ccc3c(=O)n(Cc4ccc(OC)cc4)c(=S)[nH]c3c2)CC1 | -24.7%
O=c1oc2ccccc2c(NCc2cccc(F)c2)c1[N+](=O)[O-] | 20µM*
Cc1noc(C)c1S(=O)(=O)N(CC(=O)Nc1ccc2c(c1)OCCO2)c1ccc(C(C)C)cc1 | -16.6%
Cc1cc(C)n(C(=O)c2ccc(C)c(S(=O)(=O)N3CCOCC3)c2)n1 | -0.9%
CCCC(=O)Nc1ccc(C(=O)NNC(=O)c2cccs2)cc1 | -11.0%
Cc1nc(C)c(C(=O)Nc2ccccc2)s1 | -3.4%
O=C(Nc1ccccc1C(=O)N1CCOCC1)c1cccnc1 | -15.1%
Cc1ccc(N=C2NC(=O)C(CC(=O)NCc3ccccc3)S2)cc1C (centres undefined) | -15.3%
NC(=O)CCC(NS(=O)(=O)c1ccc(Cl)cc1)C(=O)NCc1ccc(Cl)cc1 (centres undefined) | -3.7%
Cc1ccc(-c2nn3c(C)nnc3s2)cc1NC(=O)C(C)C | -20.9%
NC(=S)NNc1cccc(Cl)c1 | -21.7%
CC(C)N(Cc1cc2ccccc2[nH]c1=O)C(=O)c1cccnc1 | -10.0%
CCOC(=O)c1c(NC(=O)CSc2nnc(-c3ccco3)o2)sc(C)c1C | -22.1%
COc1ccc(N(CC(=O)Nc2cc(C(=O)O)ccc2C)S(=O)(=O)c2c(C)noc2C)cc1 | -15.0%
CCC/C(=C1/C(=O)CC(C)(C)C(C(=O)OC)C1=O)N1CCCC1 (centres undefined) | -9.7%
Cc1cc(C)nc(N2CCC(C(=O)O)CC2)n1 | ?
COc1cccc(CNC(=O)Cn2cccc2)c1 | 14.1µM*
Cc1cc(C)c(S(=O)(=O)NCc2ccncc2)c(C)c1 | -5.8%
CCC1(c2ccccc2)NC(=O)N(CC(=O)N2CCN(S(=O)(=O)c3ccccc3)CC2)C1=O (centres undefined) | -13.0%
O=C(Nc1c(C(=O)NCc2ccco2)cnn1-c1ccccc1)c1ccc(F)cc1 | -27.3%

Reprinted from the part before: 6 entries, then new ones.
SMILES | HPGD inh
CCC/C(=C1/C(=O)CC(C)(C)C(C(=O)OC)C1=O)N1CCCC1 (centres undefined) | -9.7%
Cc1cc(C)nc(N2CCC(C(=O)O)CC2)n1 | ?
COc1cccc(CNC(=O)Cn2cccc2)c1 | 14.1µM*
Cc1cc(C)c(S(=O)(=O)NCc2ccncc2)c(C)c1 | -5.8%
CCC1(c2ccccc2)NC(=O)N(CC(=O)N2CCN(S(=O)(=O)c3ccccc3)CC2)C1=O (centres undefined) | -13.0%
O=C(Nc1c(C(=O)NCc2ccco2)cnn1-c1ccccc1)c1ccc(F)cc1 | -27.3%
O=C(O)CCC(=O)Nc1ccc(Cc2ccc(NC(=O)CCC(=O)O)c(O)c2)cc1O | -8.6%
O=C(CN1C(=O)COc2ccccc21)NCCCN1CCc2ccccc2C1 | ?
COc1coc(C(O)CN)cc1=O (centres undefined) | 1.9%
Cc1nnc2n(-c3ccccc3)c(=O)c3c4c(sc3n12)COC(C(C)C)C4 (centres undefined) | -2.8%
CCc1cccc2c(C(=O)Cn3nnc(-c4ccc(OC)c(OC)c4)n3)c[nH]c12 | ?
Cn1c(=O)c2c(ncn2Cc2cc(-c3ccccc3)no2)n(C)c1=O | -2.5%
O=C(NCCN1C(=O)C2C3C=CC(C3)C2C1=O)NCc1ccccc1 (centres undefined) | -18.1%
CCOC(=O)Cc1csc(NC(=S)NC(=O)c2ccc(F)cc2)n1 | -23.4%
Cc1ccc2[nH]c(=O)c(-c3nc4c(C)cccn4c3NCc3ccco3)cc2c1 | -3.8%
CC(C)C(=O)NCCCc1ccccc1 | -15.0%
O=C(NCCN1CCN(c2ccccc2)CC1)c1ccc(NC(=O)C2CCCO2)cc1 (centres undefined) | -11.8%
CCN(CC)CCN(C(=O)Cn1nnc(-c2ccc(OC)c(OC)c2)n1)C(C(=O)NC1CCCC1)c1ccc(F)cc1 (centres undefined) | -4.3%
COc1cc(OC)cc(C(=O)N[C@H](C(=O)OCC(=O)Nc2cccc(F)c2)C(C)C)c1 | -19.1%
Cc1ccc(S(=O)(=O)O[C@@H]2[C@H]([C@@H]3COC(C)(C)O3)O[C@H]3OC(C)(C)O[C@@H]32)cc1 | -5.8%
COc1cccc(-c2cc(C(=O)Nc3ccc4c(c3)OCCO4)c3ccccc3n2)c1 | -14.3%
Cc1occc1-c1nnc(SCC(=O)Nc2ccccc2-c2ccccc2)n1C | -6.6%
COc1ccc(-c2csc3c2[N+]2=CCC=C2C3=O)cc1 | -5.2%
COC(=O)CON1C(=O)c2ccccc2C1=O | -2.7%
OC1(c2ccccc2)CCN(Cc2ccccc2)C2CCCCC21 (centres undefined) | -10.9%
CCN(CC)C(=O)c1ccc2nc3ccccc3nc2c1 | 0.891µM*
Cc1c(C(=O)Nc2ccccc2)csc1-c1ccccc1 | ?
O=S(=O)(c1ccc(Br)s1)n1cccn1 | -2.3%
Cc1ccc(-c2nn[nH]n2)cc1 | -6.4%
O=C(C1CCCN1S(=O)(=O)c1ccc(Cl)c(Cl)c1)N1CCOCC1 (centres undefined) | 1.4%
COCCn1c(SCc2ccc(C(=O)OC)o2)nnc1-c1c[nH]c2ccccc12 | -11.6%
O=C(Nc1nccs1)c1cc(Cl)ccc1[N+](=O)[O-] | -11.1%
CCCCCCCC[N+](CCCCCCCC)(CCCCCCCC)CCCCCCCC | 0.7%
CCC(C)Sc1nc2c(c(=O)[nH]c(=O)n2C)n1CC(O)COc1ccccc1C (centres undefined) | 39.8µM*
O=C1c2oc3ccc(Cl)cc3c(=O)c2C(c2cccc(Br)c2)N1CCO (centres undefined) | -2.2%
CC1(C)NC(=O)N(CC(O)CN2C(=O)NC(C)(C)C2=O)C1=O | -4.0%
O=[N+]([O-])c1cc(C(F)(F)F)ccc1NCCOc1ccccc1 | -17.9%
Cc1cc(C)n2nc3nc(N4CCCCC4)nc(-c4ccco4)c3c2n1 | ?
CCC(C)(C)n1nnnc1C(c1cc2ccc(OC)cc2[nH]c1=O)N1CCCCC1 (centres undefined) | -12.5%
Cn1c(=O)c2cc(S(=O)(=O)NCCC(=O)NCC3CCCO3)ccc2n(C)c1=O (centres undefined) | -19.3%
CN(C)CCCN(C(=O)CCc1ccccc1)c1nc2c(F)cccc2s1 | -7.3%
COC(=O)c1ccc(CSc2ccc3nnc(-c4cccnc4)n3n2)o1 | -18.6%
Cc1ccc(-c2noc(CCC(=O)NCCN3CCc4ccccc4C3)n2)cc1 | -14.8%
COc1ccc(C2C3C(=O)N(Cc4ccccc4)C(=O)C3ON2c2ccccc2)c(OC)c1OC (centres undefined) | -10.7%
Cc1ccc(/C(N)=N/OC(=O)COc2ccc(Cl)c(C)c2)cc1 | -14.6%
Cc1cc2oc(=O)cc(-c3ccccc3)c2c(C)c1/C=C/c1ccc(F)cc1 | -13.3%
CN1C(=O)c2c(sc3c2CC(C)(C)SC3)N2CCN=C12 | ?
CC(C)CC(=O)/C(=C\c1ccc(Cl)cc1Cl)n1cncn1 | ?

Some values from the list:
HPGD inh result of `CN(C)CCCN(C(=O)CCc1ccccc1)c1nc2c(F)cccc2s1` : -7.3%
HPGD inh result of `CCC(C)(C)n1nnnc1C(c1cc2ccc(OC)cc2[nH]c1=O)N1CCCCC1` (centres undefined) : -12.5%
